Screening data (PubChem)
Vaccinia inh = blocks a specific stage of Vaccinia orthopoxvirus infection, primary screen, cell-based, single point. AID 1053133, 2014. Vaccinia-infected cells, mCherry/Venus stage reporter fluorescence; stronger effect = lower value; some inactives read as strong as hits. activity change (mCherry), % (test concentration not listed). 89,000 compounds, 0.01% hits;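 active = mCherry past -33% and 40 or more points under the early reporter, replicates agreeing; inconclusive = past -33% without that gap or agreement; tested in A549 cells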;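 also: scaled between vehicle wells and reference inhibitor wells; 23 nL library stock went into each well; one replicate is shown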
Vaccinia inh Venus = also measured in Vaccinia inh; calls as there; activity change (Venus), %; measured here: Venus reporter, other viral stage;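 negative = less Venus signal; first of two replicates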
Starred values were filed as active, the others as inactive; ? = inconclusive; nt = no result given. Some of the compounds tested. The share of hits here may be higher or lower than overall.

structure	Vaccinia inh	Vaccinia inh Venus
Cc1ccc(S(=O)(=O)Nc2cccc3c2O[C@@H](CN(C)Cc2ccc(-c4ccccc4)cc2)[C@@H](C)CN([C@@H](C)CO)C3=O)cc1	-21	-2
CO[C@@H]1CN(C)C(=O)c2ccc(NC(=O)c3ccc(F)cc3)cc2OC[C@@H](C)N(C(=O)CC2CC2)C[C@@H]1C	14	11
CCC(=O)N[C@@H]1CC[C@H](CC(=O)NCC2CCCCC2)O[C@H]1CO	10	8
O=C(C[C@@H]1C=C[C@H](NC(=O)Nc2cc(F)ccc2F)[C@@H](CO)O1)NCc1ccc2c(c1)OCO2	0	0
Cc1noc(C)c1NC(=O)N[C@H]1C=C[C@H](CC(=O)N2CCCCC2)O[C@@H]1CO	5	8
COc1ccc(CN(C)C[C@H]2Oc3ccc(NS(=O)(=O)c4ccccc4)cc3CC(=O)N([C@@H](C)CO)C[C@@H]2C)cc1	-33	-28
CN1C(=O)c2cc(NC(=O)c3ccccc3)ccc2OC[C@H]2O[C@@H](CC(=O)NCC3CC3)CC[C@@H]21	-4	-5
Cc1ccc(S(=O)(=O)N(C)C[C@H]2OCCCC[C@H](C)Oc3ccc(NC(=O)NC4CCCCC4)cc3C(=O)N([C@H](C)CO)C[C@H]2C)cc1	2	8
CNC[C@@H]1Oc2ccc(N(C)C)cc2CC(=O)N([C@H](C)CO)C[C@H]1C	0	5
CCCC#Cc1cnc2c(c1)C(=O)N([C@@H](C)CO)C[C@@H](C)[C@H](CN(C)CCC)O2	7	3
CC(C)NC(=O)N(C)C[C@@H]1Oc2ccc(NC(=O)Cn3cnnn3)cc2CC(=O)N([C@H](C)CO)C[C@@H]1C	11	3
COc1ccc(C#Cc2ccc3c(c2)O[C@H](CN(C)C)[C@H](C)CN([C@H](C)CO)S3(=O)=O)cc1	?	nt

Later entries
structure	Vaccinia inh	Vaccinia inh Venus
O=C(NCc1cc(F)cc(F)c1)[C@@H]1[C@@H](CO)[C@@H]2Cn3c(cccc3=O)[C@H]1N2C(=O)Cc1ccccn1	23	14
C[C@@H](O)C#Cc1ccc([C@H]2[C@H]3CN(CC4CCOCC4)CCCCN3[C@H]2CO)cc1	15	9
COc1ccc(NC(=O)N(C)C[C@@H]2Oc3ccc(N(C)C)cc3CC(=O)N([C@H](C)CO)C[C@@H]2C)cc1	17	0
CCCC(=O)Nc1ccc2c(c1)OC[C@@H](C)N(CC1CCOCC1)C[C@@H](C)[C@H](OC)CN(C)C2=O	15	16
CCCNC(=O)Nc1ccc2c(c1)C(=O)N(C)[C@H]1CC[C@H](CC(=O)Nc3cccc(F)c3)O[C@@H]1CO2	-7	1
COC(=O)[C@@H]1[C@@H](CO)[C@@H]2Cn3c(ccc(C4=CCCC4)c3=O)[C@@H]2N1C(=O)Cc1cccnc1	18	13
C[C@H]1CN([C@@H](C)CO)C(=O)Cc2cc(N(C)C)ccc2O[C@@H]1CN(C)C(=O)Nc1cccc2ccccc12	2	3
CCCNC(=O)N1C[C@H](C)[C@@H](OC)CN(C)C(=O)c2cc(NC(C)=O)ccc2OC[C@@H]1C	-4	-1
O=C(C[C@H]1C=C[C@@H](NC(=O)C2CCOCC2)[C@@H](CO)O1)NCC1CC1	5	15
O=C(N[C@@H]1C=C[C@H](CC(=O)N2CCC(Cc3ccccc3)CC2)O[C@@H]1CO)c1cnccn1	21	8
C[C@@H]1CCCCO[C@H](CN(C)C(=O)CCCN(C)C)[C@@H](C)CN([C@H](C)CO)C(=O)c2cc(NS(=O)(=O)c3ccccc3)ccc2O1	40	7
C[C@H]1CN([C@@H](C)CO)S(=O)(=O)c2ccc(-c3ccccc3)cc2O[C@@H]1CN(C)C(=O)C1CCCCC1	-29	-18

(listing goes on)
structure	Vaccinia inh	Vaccinia inh Venus
C[C@H](CO)N1C[C@H](C)[C@H](CN(C)CC2CCCCC2)Oc2ccc(NC(=O)Nc3ccccc3)cc2C1=O	-32	-26
CO[C@H]1CN(C)C(=O)c2cc(NS(C)(=O)=O)ccc2OC[C@H](C)N(C(=O)C2CCOCC2)C[C@H]1C	13	3
CC(=O)N(C)C[C@@H]1Oc2ncc(-c3cccc(F)c3)cc2C(=O)N([C@H](C)CO)C[C@H]1C	12	4
C[C@@H]1CN([C@H](C)CO)C(=O)c2cc(NC(=O)CCC(F)(F)F)ccc2O[C@@H]1CN(C)C	-10	-13
COCC(=O)N1CC(=O)N2[C@H](C1)[C@@H](c1ccc(Br)cc1)[C@@H]2CO	30	18
CCCC#Cc1ccc2c(c1)O[C@H](CN(C)S(C)(=O)=O)[C@@H](C)CN([C@@H](C)CO)S2(=O)=O	-21	-21
COCc1cn(CC[C@@H]2CC[C@H](NC(=O)Nc3ccc(Cl)cc3)[C@@H](CO)O2)nn1	8	12
CC(C)CC#Cc1ccc2c(c1)O[C@H](CN(C)C(=O)c1ccccn1)[C@H](C)CN([C@H](C)CO)S2(=O)=O	-16	-20
O=S(=O)(c1ccccc1)N1CCCCN2[C@H](CO)[C@@H](c3ccc(C#Cc4cccnc4)cc3)[C@H]2C1	-12	-8
Cc1noc(C)c1NC(=O)Nc1ccc2c(c1)C(=O)N([C@@H](C)CO)C[C@@H](C)[C@@H](CN(C)Cc1ccncc1)OCCCC[C@H](C)O2	17	12
C[C@@H]1CN([C@H](C)CO)C(=O)Cc2cc(NC(=O)Cc3cn(C)c4ccccc34)ccc2O[C@@H]1CN(C)CC1CCCCC1	-31	-19
CCC(=O)N1C[C@H](C)[C@@H](OC)CN(C)C(=O)c2ccc(NC(=O)Nc3ccccc3)cc2OC[C@H]1C	-9	-11

Full records, looked up by structure.
Profile of CCC(=O)N1C[C@H](C)[C@@H](OC)CN(C)C(=O)c2ccc(NC(=O)Nc3ccccc3)cc2OC[C@H]1C : Vaccinia inh = -9; Vaccinia inh Venus = -11
Profile of CC(C)CC#Cc1ccc2c(c1)O[C@H](CN(C)C(=O)c1ccccn1)[C@H](C)CN([C@H](C)CO)S2(=O)=O : Vaccinia inh = -16; Vaccinia inh Venus = -20

Going on with the list.
structure	Vaccinia inh	Vaccinia inh Venus
O=C([C@@H]1N[C@@H]2c3ccc(-c4ccc(F)cc4)c(=O)n3C[C@@H]2[C@H]1CO)N1CCOCC1	4	4
CC(=O)NC[C@H]1[C@@H](c2ccc(C#CC(C)C)cc2)[C@@H](CO)N1Cc1ccccn1	-5	0
C[C@H](CO)N1C[C@H](C)[C@@H](CN(C)Cc2ccc(C(=O)O)cc2)OCCCC[C@H](C)Oc2ccc(NS(C)(=O)=O)cc2C1=O	14	6
CN(C)CC(=O)N1CCCCN2[C@H](CO)[C@H](c3ccc(-c4ccccc4)cc3)[C@@H]2C1	0	-9
CN1CCN(C(=O)C[C@H]2CC[C@H](NC(=O)c3ccc4c(c3)OCO4)[C@H](CO)O2)CC1	6	4
COc1ccc(NC(=O)Nc2ccc3c(c2)C(=O)N([C@H](C)CO)C[C@H](C)[C@H](CN(C)S(=O)(=O)c2ccc(Cl)cc2)O3)cc1	-17	-16
CCCNC(=O)N(C)C[C@@H]1Oc2cc(-c3ccc(C)cc3)ccc2S(=O)(=O)N([C@H](C)CO)C[C@H]1C	-14	-18
CCNC(=O)[C@@H]1[C@@H](CO)[C@@H]2Cn3c(ccc(-c4cncnc4)c3=O)[C@@H]2N1C(=O)c1ccccc1F	7	4
C[C@H]1CN([C@@H](C)CO)C(=O)c2cccc(N(C)C)c2O[C@@H]1CN(C)Cc1ccc(C(F)(F)F)cc1	-15	-11
CC(C)NC(=O)Nc1cccc2c1O[C@@H](CN(C)C(=O)Nc1ccc(F)cc1)[C@@H](C)CN([C@H](C)CO)C2=O	3	1
CC(C)NC(=O)Nc1ccc2c(c1)C(=O)N([C@@H](C)CO)C[C@H](C)[C@H](CN(C)C(=O)Nc1cccc3ccccc13)O2	10	8
C[C@@H]1CN([C@@H](C)CO)C(=O)c2cc(NS(=O)(=O)c3ccc(F)cc3)ccc2O[C@@H](C)CCCCO[C@H]1CN(C)CC1CCCCC1	?	nt

Given with two lines to a compound: 2 of the compounds above
The line under a structure holds: Vaccinia inh | Vaccinia inh Venus
C[C@H](CO)N1C[C@H](C)[C@@H](CN(C)Cc2ccc(C(=O)O)cc2)OCCCC[C@H](C)Oc2ccc(NS(C)(=O)=O)cc2C1=O
 : 14 | 6
CN(C)CC(=O)N1CCCCN2[C@H](CO)[C@H](c3ccc(-c4ccccc4)cc3)[C@@H]2C1
 : 0 | -9

Next part:
structure	Vaccinia inh	Vaccinia inh Venus
COc1ccc(S(=O)(=O)N(C)C[C@H]2Oc3ncc(C#CC4(O)CCCC4)cc3C(=O)N([C@H](C)CO)C[C@H]2C)cc1	-5	-2
C[C@H](CO)N1C[C@H](C)[C@@H](CN(C)C(=O)Nc2ccc(F)cc2)Oc2ncc(C3=CCCCC3)cc2C1=O	-2	-10
COc1ccc(S(=O)(=O)Nc2ccc3c(c2)CC(=O)N([C@@H](C)CO)C[C@@H](C)[C@H](CN(C)Cc2ccncc2)O3)cc1	16	5
COc1ccccc1-c1cnc2c(c1)C(=O)N([C@H](C)CO)C[C@H](C)[C@H](CN(C)Cc1ccncc1)O2	16	4
O=C(C[C@H]1CC[C@@H](NC(=O)c2ccccc2)[C@H](CO)O1)NCc1ccncn1	14	11
COC(=O)[C@@H]1[C@@H](CO)[C@@H]2Cn3c(ccc(C4=CCCCC4)c3=O)[C@H]1N2Cc1ccccc1OC	-15	-17
COCC(=O)Nc1ccc2c(c1)C(=O)N(C)C[C@H](OC)[C@H](C)CN(Cc1ccncc1)[C@H](C)CO2	8	13
CC=Cc1ccc2n(c1=O)C[C@H]1[C@H](CO)[C@@H](C(=O)NCC(F)(F)F)N(CC3CC3)[C@@H]21 (mixture of isomers)	8	6
O=C(C[C@H]1CC[C@@H]2[C@H](COC[C@H](O)CN2Cc2ccc(F)cc2)O1)NCCc1ccccc1	-2	-6
C[C@@H]1CN([C@@H](C)CO)C(=O)c2cc(Br)cnc2O[C@H]1CN(C)S(=O)(=O)c1ccc(F)cc1	1	-1
COc1ccccc1CN(C)C[C@@H]1OCc2cnnn2CCCC(=O)N([C@@H](C)CO)C[C@H]1C	7	9
O=S(=O)(Cc1ccccc1)N1CCCCN2[C@H](C1)[C@H](c1ccc(C#Cc3ccccc3)cc1)[C@@H]2CO	-23	-17

Next compounds.
structure	Vaccinia inh	Vaccinia inh Venus
O=C(C[C@H]1CC[C@H](NC(=O)C2CC2)[C@H](CO)O1)Nc1ccccc1	-11	-13
O=C(N[C@H]1CC[C@H](CCNS(=O)(=O)c2ccccc2Cl)O[C@@H]1CO)c1ccc(F)cc1	-15	-5
CCNC(=O)[C@H]1[C@H](CO)[C@H]2Cn3c(ccc(-c4ccc(OC)cc4)c3=O)[C@@H]1N2CC1CC1	-3	-9
C[C@@H]1CCCCO[C@@H](CN(C)Cc2ccc3c(c2)OCO3)[C@H](C)CN([C@@H](C)CO)C(=O)c2cc(NS(=O)(=O)c3ccc(Cl)cc3)ccc2O1	?	nt
CCCN(C)C[C@H]1Oc2cc(C#C[C@@H](C)O)ccc2S(=O)(=O)N([C@H](C)CO)C[C@H]1C	4	4
COc1ccc(C#Cc2ccc3c(c2)O[C@H](CN(C)S(=O)(=O)c2ccccc2F)[C@@H](C)CN([C@@H](C)CO)S3(=O)=O)cc1	-8	3
CN(C)C(=O)c1ccc(-c2ccc([C@H]3[C@@H](C#N)N(C(=O)C4CCCCC4)[C@H]3CO)cc2)cc1	?	nt
OC[C@@H]1[C@@H](c2ccccc2)C2(CN(CC3CC3)C2)N1Cc1cncnc1	8	3
C[C@@H]1CN([C@H](C)CO)S(=O)(=O)c2ccc(C#Cc3ccc(F)cc3)cc2O[C@@H]1CN(C)S(C)(=O)=O	?	nt
CO[C@@H]1CN(C)C(=O)c2cc(NC(=O)C3CC3)ccc2OC[C@@H](C)N(C(=O)C2CCCCC2)C[C@H]1C	6	12
O=C(N[C@@H]1C=C[C@H](CC(=O)N2CCCCC2)O[C@@H]1CO)c1ccccn1	4	8
COc1ccc(NC(=O)N[C@@H]2CC[C@H](CCn3cc(-c4ccccc4)nn3)O[C@H]2CO)cc1	-9	-5

Grouped by structure: the compounds so far containing bromine (2)
structure	Vaccinia inh	Vaccinia inh Venus
COCC(=O)N1CC(=O)N2[C@H](C1)[C@@H](c1ccc(Br)cc1)[C@@H]2CO	30	18
C[C@@H]1CN([C@@H](C)CO)C(=O)c2cc(Br)cnc2O[C@H]1CN(C)S(=O)(=O)c1ccc(F)cc1	1	-1

(cont.)
structure	Vaccinia inh	Vaccinia inh Venus
O=C(Cc1ccccn1)N1CC2(C1)[C@H](c1ccccc1)[C@@H](CO)N2C(=O)c1ccccc1	0	6
COc1ccc(NC(=O)N(C)C[C@@H]2Oc3ccc(NC(=O)Cc4cn(C)c5ccccc45)cc3CC(=O)N([C@@H](C)CO)C[C@H]2C)cc1	1	1
Cc1ccc(S(=O)(=O)N(C)C[C@H]2OCCCC[C@@H](C)Oc3ccc(NC(=O)Nc4ccc(C(F)(F)F)cc4)cc3C(=O)N([C@@H](C)CO)C[C@H]2C)cc1	-26	-10
CCCNC(=O)N1[C@@H](CO)[C@@H](c2ccccc2)C12CN(C(=O)CC1CC1)C2	2	0
C=CCN1C(=O)[C@@]2(O[C@@H](CCn3cc([C@H](O)c4ccccc4)nn3)[C@H]([Si](C)(C)c3ccc(OC)cc3)[C@H]2C)c2cc(N3CCOC3=O)ccc21	?	nt
OC[C@@H]1[C@@H](c2ccc(-c3ccccc3F)cc2)[C@@H]2CN(Cc3cccnc3)CCCCN12	-8	-19
